# Assay outcomes: PubChem, National Center for Advancing Translational Sciences (NCATS)
# SARS PLP yeast: blocks SARS-CoV papain-like protease in a yeast assay | S. cerevisiae expressing SARS-CoV PLpro, growth rescue; control for the full effect not named in the record | Potency, µM (titrated, usually from 32.9 µM), inactives show at the highest dose activity, positive = growth rescue | actives 0.19% (n = 330,000); active means well fitted rising curve with a large enough effect; inconclusive means small, poorly fitted or top-dose-only effect; inactive means no such curve, though single readings can be large or run the other way; note: 0% is about no effect; nearly all actives have a fitted effect of over 55% in size; growth read by luminescence after 48 h
# RE007 growth inh: less growth of the S. pombe RE007 Vpr strain; Potency, µM (titrated, usually from 92.2 µM), for the others: at the highest dose activity change, negative = less growth; actives 0.21% (n = 360,000); S. pombe RE007 Vpr strain, BacTiter-Glo ATP luminescence, 24 h; control for the full effect not named in the record; active = well fitted falling curve with a large enough effect; inconclusive = small, poorly fitted or top-dose-only effect; inactive = no such curve, though single readings can be large or run the other way;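 note: % is set by controls: 0 for no effect and ±100 for the full control effect; nearly all actives have a fitted effect of over 50% in size; the assay follows cell death caused by Vpr and the record does not say whether a fall means rescue or toxicity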
#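 Fission yeast RE007 carrying one integrated HIV-1 vpr copy, seeded at OD 0.01 in PMG+AL medium with 23 nL pinned compound. Grown 24 h at 30 degrees; viability read by BacTiter-Glo luminescence after 5 min.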
# 2A StopGo: lowers the luciferase signal of an FMDV 2A StopGo reporter; human cells with a luciferase reporter of 2A StopGo recoding; control for the full effect not named in the record; Potency, µM (series often up to 57.9 µM), inactives show top-dose signal change, negative = less light; actives 1.2% (n = 410,000); active = well fitted falling curve with a large enough effect; inconclusive = small, poorly fitted or top-dose-only effect; inactive = no such curve, though single readings can be large or run the other way; tested in HEK293T cells; note: % is set by controls: 0 for no effect and ±100 for the full control effect; nearly all actives have a fitted effect of over 45% in size; luciferase light after 4 h
# * hit, by the source's call; ? = inconclusive; [ ] = remark or other dose. Potency is the fitted concentration of half-maximal effect. These rows are one share of the data. The share of hits here may be higher or lower than overall.
Molecule	SARS PLP yeast	RE007 growth inh	2A StopGo
O=C(Cn1c(=O)c(=O)n(Cc2ccccc2)c2ccc(Cl)cc21)NCC1CCCO1 (stereo not given)	-2%	6%	8%
O=C(Cn1[nH]c(=O)c2ccccc2c1=O)OCC(=O)c1ccccc1	2%	?	0%
CCN(C[C@H]1N[C@@](Cc2ccccc2)(C(=O)OC)[C@H]2C(=O)N(C)C(=O)[C@@H]12)S(=O)(=O)c1ccc(-c2ccccc2)cc1	4%	0%	-26%
N#CCSc1ccccc1NC(=O)COC(=O)Cc1c[nH]c2ccccc12	15%	-7%	1%
COc1ccc(NS(=O)(=O)c2cc(C(=O)N3CCC3)ccc2C)cc1	3%	-7%	17%
C[C@H](NC(=O)c1nc[nH]c1C(=O)N1CCNCC1)C(=O)OCc1ccccc1	-1%	3%	-18%
O=C(COC(=O)c1ccc(F)cc1Cl)NC1CCS(=O)(=O)C1 (stereo not given)	-2%	-3%	4%
O=C(C1CCCN(S(=O)(=O)c2cccc3nsnc23)C1)N1CCCCCC1 (stereo not given)	2%	2%	-12%
O=C(COC(=O)/C=C/c1ccccc1Cl)Nc1cccnc1Cl	-20%	13%	-2%
CN(C)S(=O)(=O)c1ccc(C(=O)Oc2coc(CSc3ncccn3)cc2=O)cc1	0%	14%	-2%
O=C(COC(=O)c1ccc(F)cc1)NCC1CCCCC1	-2%	6%	-10%
O=C(c1cn(Cc2ccccc2)nc1-c1cccnc1)N1CCN(Cc2ccccc2)CC1	-2%	-13%	8%
CCOC(=O)N1CCN(c2ccc(C(C)=O)cc2F)CC1C (stereo not given)	1%	-1%	9%
Cn1c2ccccc2c(=O)c2cc(NCCCN3CCOCC3)ccc21	3%	-10%	43%[activator]
O=C(OCC(=O)N(c1ccccc1)C1CCCCC1)c1ccc(CO)cc1	5%	12%	-25%
COc1ccc2cc(CO)c3cc(OC)c(OC)cc3c2c1	-4%	-21%	0%
O=C(/C=C/c1ccc2c(c1)OCO2)Nc1cccnc1	-2%	-17%	0%
OCC[C@H]1C[C@@H](O)[C@H](O)[C@]2(CCc3ccccc3O2)O1	1%	0%	-16%
Cc1ccc(-n2c(=O)[nH]c3c(oc4ccccc43)c2=O)cc1	2%	9%	-3%
O=C(Nc1ccccn1)c1cc2cc([N+](=O)[O-])ccc2s1	1%	-1%	47%[activator]
Cc1cccc(OCC(=O)Nc2nc(-c3ccncc3)cs2)c1	-1%	-21%	?
C=CCNC(=O)COC(=O)CNC(=O)c1cc(Cl)cc([N+](=O)[O-])c1	-8%	0%	-16%
CN(C)S(=O)(=O)c1ccc(NC(=O)COC(=O)C2CC3CCCC(C2)C3=O)cc1 (stereo not given)	-1%	17%	-4%
Cc1ccc(NC(=O)CN2C(=O)NC(C)(C3CC3)C2=O)c([N+](=O)[O-])c1 (stereo not given)	8%	-9%	?
Nc1cc(=O)[nH]c(SCC(=O)Nc2cccc(Cl)c2Cl)n1	1%	1%	-11%
COc1ccc(OC)c(COC(=O)c2cccc(S(=O)(=O)N3CCCCC3)c2)c1	-8%	14%	23%
COc1ccc(N2CCN(C(=O)[C@@H]3CCCN3C3=NS(=O)(=O)c4ccccc43)CC2)cc1	1%	-8%	40%[activator]
C[C@H]1COC(=O)[C@H](CC(=O)OC(C)(C)C)C/C=C\C[C@@H](CC(=O)NCCO)C(=O)N1	2%	12%	-10%
O=C(NCC(c1ccco1)N1CCCC1)c1cc(S(=O)(=O)N2CCOCC2)ccc1Cl (stereo not given)	-2%	-17%	-9%
O=C1CSc2ccc(C(=O)NCCc3ccc(Cl)cc3Cl)cc2N1	1%	-6%	-26%

# Reformatted with each value named: entries from further up.
O=C(COC(=O)c1ccc(F)cc1Cl)NC1CCS(=O)(=O)C1 (stereo not given)
- SARS PLP yeast: -2%
- RE007 growth inh: -3%
- 2A StopGo: 4%
O=C(C1CCCN(S(=O)(=O)c2cccc3nsnc23)C1)N1CCCCCC1 (stereo not given)
- SARS PLP yeast: 2%
- RE007 growth inh: 2%
- 2A StopGo: -12%
O=C(COC(=O)/C=C/c1ccccc1Cl)Nc1cccnc1Cl
- SARS PLP yeast: -20%
- RE007 growth inh: 13%
- 2A StopGo: -2%

# More structures:
Molecule	SARS PLP yeast	RE007 growth inh	2A StopGo
COc1ccc2[nH]c3c(c2c1)CCN1C(=O)C(CC(=O)NCc2ccco2)C[C@H](C(=O)N(C(C)C)C(C)C)[C@@]31C (stereo not given in full)	19%	6%	?
Cc1ccc(S(=O)(=O)N2[C@@H](c3ccccc3)C(C(=O)O)=CC[C@H]2c2ccc(Cl)c(Cl)c2)cc1	0%	-1%	15%
CC[C@]12c3[nH]c4cc(-c5ccco5)ccc4c3CCN1C(=O)[C@@H](CC(=O)NCCN1CCOCC1)C[C@@H]2C(=O)N1CCN(C(=O)C2CC2)CC1	-5%	-6%	-17%
COc1cccc([C@@H]2CC=C(C(=O)O)[C@H](c3ccc(C)cc3)N2S(=O)(=O)c2ccc(C)cc2)c1	0%	-1%	-8%
COC(=O)C1=C(c2ccc(Cl)c(C(F)(F)F)c2)C[C@@H]2CC[C@H]1N2C(=O)NCc1ccc2c(c1)OCO2	4%	-3%	?
O=C1CN(C(=O)CSc2nc3c(cnn3-c3ccccc3)c(=O)[nH]2)c2ccccc2N1	-5%	-8%	-3%
N/C(=N\OC(=O)c1ccc(=O)n(Cc2ccc(Cl)cc2)c1)c1ccccn1	-5%	21%	0%
CCOc1cc(C(=O)OCc2ccc(OC)cc2)ccc1OCC(=O)N1CCOCC1	8%	-4%	1%
CCN(CC(=O)Nc1ccc(OC)cc1)C(=O)COc1cccc2c1OC(C)(C)C2	-9%	6%	8%
COc1ccc([C@H]2CC(=O)C=C(c3ccc(Cl)c(F)c3)C2)cc1	-5%	-12%	-4%
C=C[C@@H]1c2c(F)cccc2N(S(=O)(=O)c2ccc(C)cc2)[C@H](c2ccc(OC(C)=O)cc2)C1(C#N)C#N	3%	1%	-20%
Cc1noc(C)c1S(=O)(=O)Nc1ccc2c(c1)C(=O)N([C@H](C)CO)C[C@H](C)[C@@H](CN(C)S(=O)(=O)c1ccc(F)cc1)O2	-4%	14%	-4%
O=C(COc1ccc(Br)cc1)Nc1ccc(N2CCOCC2)cc1N1CCOCC1	5%	-3%	-22%
CCCCOc1ccc(C(=O)NCC(=O)NNC(=O)C2COc3ccccc3O2)cc1 (stereo not given)	5%	-11%	-2%
COc1cc(Cl)c(NC2=CC(=O)C(=O)c3ccccc32)c(OC)c1	-2%	1%	?
Cc1ccc(CC(=O)Nc2ccc([N+](=O)[O-])cc2C)cc1	0%	3%	-8%
Cc1ccc(SCC(=O)OCC(=O)NC(C)c2ccc(F)cc2)cc1 (stereo not given)	0%	8%	-5%
CC(C)(C)OC(=O)C[C@@H]1C/C=C\C[C@H](CC(=O)N[C@H](CO)Cc2ccccc2)C(=O)N2CCC[C@H]2COC1=O	-3%	3%	-20%
CC(C)(C)OC(=O)C[C@H]1C/C=C\C[C@@H](CC(=O)N(CCO)Cc2ccccc2)C(=O)N[C@H](Cc2c[nH]c3ccccc23)COC1=O	6%	0%	23%
COc1ccc2c(c1)OC[C@H]1[C@@H]2N2C(=O)[C@@H](C)NC(=O)[C@@]2(C)[C@H]1c1ccccc1	-1%	-1%	-4%
Cc1c(C(=O)OCCOc2ccc(Br)cc2)sc(=S)n1C	1%	-8%	-1%
CN(C)S(=O)(=O)c1cccc(NC(=O)c2ccc(N3CCCC3=O)cc2)c1	6%	-6%	-20%
CC1(C)CC(=O)C(N=Nc2cc3c(cc2[N+](=O)[O-])OCCO3)=C(O)C1	1%	4%	1%
N#CCSc1ccccc1NC(=O)COc1ccc(-c2nnco2)cc1	-5%	3%	5%
COC(=O)C1=C(c2ccc(-c3ccccc3)c(F)c2)C[C@@H]2CC[C@H]1N2C(=O)N1CCC(O)CC1	9%	-14%	?
COc1cc(NC(=O)C2CC(=O)N(Cc3ccco3)C2)c(OC)cc1Cl (stereo not given)	2%	13%	-1%
O=C(NNC(=S)NC(=O)c1cn(-c2ccccc2)nc1-c1ccccc1)c1ccncc1	0%	10%	0%
N#CCCN(C(=O)COC(=O)CCC(=O)c1cccs1)c1ccccc1	1%	-12%	-3%
COc1ccc2c(c1)OC[C@H]1[C@H]2N2C(=O)CN(Cc3ccco3)C(=O)[C@@]2(C)[C@H]1c1ccccc1	3%	-16%	-15%
COC(=O)C1=C(c2c(C)noc2C)C[C@@H]2CC[C@H]1N2C(=O)NC1Cc2ccccc2C1	-2%	6%	3%

# Going on with the list:
Molecule	SARS PLP yeast	RE007 growth inh	2A StopGo
O=C(NCc1ccc(OC(F)(F)F)cc1)c1cccc2c1C(=O)c1ccc(N3CCCCC3)cc1S2(=O)=O	-1%	-15%	-3%
CCCCCc1cc(=O)c2ccccc2o1	-29%	18%	25%
CC(=O)Nc1cccc(NC(=O)CSc2ccc3nnc(CCNC(=O)c4ccccc4)n3n2)c1	8%	-7%	10%
CN(C)C1=NC[C@H](Cc2ccccc2)N1CCC1CCCC1	7%	-10%	-21%
O=C(NCCCN1CCCC1=O)C1CCN(S(=O)(=O)c2cccc(Cl)c2Cl)CC1	0%	-2%	-26%
CCOc1ccc(C(=O)NCC(=O)NNC(=O)c2cc(C)oc2C)cc1OCC	-2%	-1%	0%
Cc1ccc(-c2cnc3n2CCCCC3)cc1	0%	-1%	0%
CN(C)S(=O)(=O)c1cc(NC(=O)COC(=O)C2COc3ccccc3O2)ccc1Cl (stereo not given)	3%	-8%	-13%
CCOc1ccc(/C=N/NC(=O)C(C)N(c2ccc(OC)cc2)S(C)(=O)=O)cc1OCC (stereo not given)	0%	7%	-9%
COc1ccccc1-c1nn(-c2ccccc2)cc1C(=O)N1CCc2ccccc2C1	0%	2%	10%
Cc1ccc(C)c(-n2ccnc2SCC(=O)Nc2cccc(S(=O)(=O)NC3=NCCC3)c2)c1	1%	1%	6%
C=C[C@@H]1c2ccccc2N(S(=O)(=O)c2ccc(C)cc2)[C@H](c2ccccc2)C1(C#N)C#N	1%	-4%	?
N#Cc1ccccc1S(=O)(=O)N1CCN(C(=O)CCC2CCCC2)CC1	1%	-12%	-13%
CC1CCCC(C)N1C(=O)COc1ccc([N+](=O)[O-])cc1Cl (stereo not given)	-1%	-3%	-6%
Cc1cccc(C)c1NC(=O)CS(=O)CC(=O)NCC1OCCc2ccccc21 (stereo not given)	0%	-17%	-17%
O=C(c1cn(Cc2ccccc2)nc1-c1cccnc1)N1CCN(Cc2c(F)cccc2Cl)CC1	0%	-17%	23%
COc1ccc(S(=O)(=O)N2CCc3ccccc32)cc1C(=O)NC1(C)CCS(=O)(=O)C1 (stereo not given)	1%	2%	-3%
COC(=O)c1cc2cc(OC)ccc2n1C	-4%	-10%	23%
O=C(O)CCCCCCCCCCCNC(=O)NC12CC3CC(CC(C3)C1)C2	2%	-4%	0%
CCOC(=O)Nc1ccc2c(CN3CCN(S(=O)(=O)c4ccc(C(C)C)cc4)CC3)cc(=O)oc2c1	3%	6%	-8%
COc1ccccc1C(C)NC(=O)C1CCN(S(=O)(=O)c2cccs2)CC1 (stereo not given)	-2%	-7%	-5%
CC(C)n1ncc2c(C(=O)Nc3ccc(S(N)(=O)=O)cc3)cc(C3CC3)nc21	1%	4%	?
O=S(=O)(c1ccccc1)[C@@]1(c2ccc(Br)cc2)C[C@@H]2ON=C(c3ccccc3)[C@@H]2C1	-1%	11%	-27%
COc1ccc(NC(=O)CSc2nnc(C)n2N)cc1S(=O)(=O)N1CCCCC1	2%	-11%	3%
COC(=O)C1=C(c2cccc(C#N)c2)C[C@@H]2CC[C@H]1N2C(=O)NCc1ccc(F)cc1	-6%	-9%	-14%
O=C(COC(=O)c1cc(Cl)ccc1O)Nc1ccc2c(c1)OCCO2	-5%	5%	20%
C[C@H](CO)N1C[C@H](C)[C@@H](CN(C)S(=O)(=O)c2ccc(F)cc2)Oc2c(NS(=O)(=O)c3ccccc3)cccc2C1=O	1%	-5%	16%
O=C(N[C@@H]1c2ccccc2CC[C@@H]1OCc1ccccc1)c1ccc(-c2ccccc2)cc1	2%	-13%	-6%
CCOc1cc(N2CCOCC2)c(OCC)cc1NC(=O)COC(=O)CCOc1ccc(C)cc1	4%	15%	-11%
Cc1ccccc1NC(=O)Cn1c(=O)n(CC2CCCO2)c(=O)c2ccccc21 (stereo not given)	1%	21%	-9%
COc1cc(CC(=O)OCC(=O)N2CCN(C(=O)c3ccco3)CC2)cc(OC)c1OC	5%	6%	-5%
COc1ccccc1OCC(=O)NNC(=O)C1CCN(c2ncnc3sc(C)c(C)c23)CC1	-11%	-14%	18µM*
